Rce1 inh: blocks yeast Ras-converting enzyme; calls only; 290,000 tested, 0.27% active; yeast membranes, quenched prenylated peptide cleavage fluorescence; Q03530; AID 2563;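 active = fall in fluorescence gain of 50% or more versus controls, with final raw signal at or below 3038400; inconclusive = same 50% fall but final raw signal above 3038400; inactive = fall in fluorescence gain under 50%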;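 also: plate controls were neutral control wells for no effect and wells lacking membranes for full effect; tested at 10 µM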
Target sequence (Q03530 whole entry, looked up): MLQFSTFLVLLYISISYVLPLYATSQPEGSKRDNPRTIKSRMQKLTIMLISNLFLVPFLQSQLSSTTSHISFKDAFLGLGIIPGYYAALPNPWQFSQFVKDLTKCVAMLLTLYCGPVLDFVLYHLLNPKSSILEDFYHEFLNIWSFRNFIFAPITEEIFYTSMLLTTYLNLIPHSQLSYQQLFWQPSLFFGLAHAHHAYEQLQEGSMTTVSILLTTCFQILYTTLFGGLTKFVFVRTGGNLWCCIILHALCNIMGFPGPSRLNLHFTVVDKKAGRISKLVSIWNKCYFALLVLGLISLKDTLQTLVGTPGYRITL
UUG fidelity: yeast start codon fidelity modulation. S. cerevisiae UUG-firefly luciferase reporter, luminescence/redox ratio. activity score, % at 18.7 µM. AID 602363. 350,000 tested, 0.13% active;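 active = replicate mean at a twofold rise or more, about +100% in these data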;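 also: firefly luciferase made from a UUG start codon reports start codon fidelity; reporter light over untreated wells divided by growth signal over untreated wells; some hits fall short of that in this replicate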
HIV Env fusion: HIV envelope-mediated fusion inhibition; HeLa-JRFL Env/CEM21 cell fusion, luciferase; inhibition, % at 12.3 µM; 360,000 tested, 1.1% active; AID 651610;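 active = mean replicate inhibition score of at least 50 and every replicate individually at or above 50; inconclusive = only one of the two criteria met; inactive = mean below 50 and not all replicates reaching 50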;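 also: 0% = plate neutral controls and 100% = maraviroc near 300 nM; one replicate is shown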
MT1-MMP act inh: MT1-MMP (human) activation inhibition | P50281 | HT1080 RFP-PRO-GFP cells, GFP/RFP ratio fluorescence, overnight; percent of plate control window, DMSO zero | GFP/RFP ratio change, % at 20 µM | 360,000 tested, 0.061% active | AID 651647;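 active = GFP/RFP ratio change of at least 30% with cell ATP level not reduced by more than half and red fluorescence within 50% of control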; also: strong numbers were not always called active
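Material: RFP-PRO-GFP reporter HT1080 cells. Dosing: single-point 20 µM compound, 1% DMSO. Controls: DMSO and RFP-L50D-GFP cell wells. Timing: cells overnight before dosing, compound overnight, 37 °C, 5% CO2. Measure: GFP/RFP fluorescence ratio.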
eIF4H FP inh: inhibitors of RNA binding by human eIF4H | eIF4H fluorescence polarization binding assay | inhibition, % at 35 µM | 290,000 tested, 0.94% active;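 active = 50% or more with normal probe brightness, or confirmed in later tests; inconclusive = above 50% with abnormal brightness, or retests that disagree; inactive = below 50% or failed in later tests; about a fifth of its hits are not listed in these tables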;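 also: calls also rest on retests at 20 µM and on dose response follow-up; 0% = protein and probe with vehicle and 100% = probe without protein; strong numbers were not always called active; many hits fall short of the cut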
PABP FP inh: blocks human PABP binding to poly(A) RNA; P11940; fluorescence polarization; inhibition, % at 35 µM; 290,000 tested, 1% active;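 active = 50% or more with normal probe brightness, or confirmed in later tests; inconclusive = above 50% with abnormal brightness, or retests that disagree; inactive = below 50% or failed in later tests; about a fifth of its hits are not listed in these tables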;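 also: calls also rest on retests at 20 µM and on dose response follow-up; controls were probe without protein and protein plus probe with vehicle; some compounds called inactive have numbers as strong as hits; many hits fall short of the cut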
CSC inhib: cancer stem cell inhibition; AID 2717; cancer stem cell-like cells viability, luminescence; 300,000 tested, 1.1% active; inhibition, % at 7.5 µM;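 active = mean at 75% or more and at least half the replicates too; inconclusive = mean and replicates disagree; tested in HMLE shEcad cells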;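 also: 0% = median of negative and 100% = median of positive control wells; the first replicate is given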
eIF4H FP inh retest: also measured in eIF4H FP inh; calls as there; inhibition, %; compound at 20 µM; confirmation average;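 mean of two retest wells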
PABP FP inh retest: second read-out of PABP FP inh, no call of its own (marks repeat the call); inhibition, %; compound at 20 µM; confirmation repeats;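 mean of two retest wells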
MT1-MMP act inh RFP: further read-out of MT1-MMP act inh, marked with its call; RFP signal change, %; measured here: RFP expression control read;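 0 = vehicle wells; hits needed this value within 50% of zero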
* = called active by the depositor; i = inactive; ? = inconclusive; / = not tested or not shown; + = active, no number; & = joins results of further samples.

SMILES	Rce1 inh	UUG fidelity	HIV Env fusion	MT1-MMP act inh	MT1-MMP act inh RFP	eIF4H FP inh	PABP FP inh	CSC inhib	others
CC1CCCCC12NC(=O)N(CC(=O)Nc1cccc(S(=O)(=O)N3CCCCC3)c1)C2=O (stereo unspecified)	/	-7	10	7	1	/	/	/
Brc1csc(C=Nc2ccc3c(c2)OCCOCCOCCOCCO3)c1	i	-4	13	0	5	32	21	5
O=C(NCCCNc1ccc(C(F)(F)F)cc1[N+](=O)[O-])c1ccc(Cl)cc1	i	-1	/	1	0	-9	-10	30
CCn1c(SCC(=O)N(C)c2ccccc2)nc2c([nH]c3ccccc32)c1=O	i	-16	/	-16	-9	-8	-2	1
Cc1cccc(NC(=S)NC(=O)CCc2ccccc2)c1C	i	-13	/	5	3	-4	2	/
N#Cc1nc(-c2ccc(F)cc2)oc1N1CCC(C(N)=O)CC1	?	-4	19	1	2	-5	12	/
COc1ccc2c(c1)c(CC(=O)OCC(N)=O)c(C)n2C(=O)c1ccc(Cl)cc1	i	-10	1	-1	-9	-8	-3	-1
CSc1ncccc1C(=O)Nc1ccc2nc(C)sc2c1	i	4	-25	3	-1	-17	-3	/
Cn1cccc1-c1nc2ccc([N+](=O)[O-])cc2[nH]1	i	53	-63	5	-3	10	-1	-4
COCCOC(=O)C1=C(C)NC(C)=C(C(=O)OC(C)C)C1c1cccc([N+](=O)[O-])c1 (stereo unspecified)	i	2	-5	-3	-6	-4	-8	6
Cc1ccccc1CC1CCN(CCCNC(=O)Nc2ccccc2)CC1	i	-4	-7	-2	0	-11	2	-3
O=C(c1ccccc1)N(Cc1cccc(Br)c1)C1CCS(=O)(=O)C1 (stereo unspecified)	i	4	2	1	2	/	/	16
O=C(CSc1ccc(-c2ccco2)nn1)Nc1ccc(F)cc1	i	-5	/	3	-10	-2	5	-6
COC(=O)c1cc2oc3ccccc3c2n1Cc1ccccn1	i	-6	/	-1	1	-1	-4	-7
COc1ccc(/C=C2\SC(=S)N(N3C(=O)CCC3=O)C2=O)cc1O	i	-7	15	4	6	44	0	-13
COc1ccc(N(C(=O)c2snc(C(N)=O)c2N)C(C(=O)NC2CCCC2)c2cccs2)cc1OC (stereo unspecified)	i	/	-7	-2	0	8	13	-10
Cc1cc(NS(=O)(=O)c2cccs2)no1	i	-11	12	-1	8	-13	9	-12
Oc1cc(-n2cccn2)c(O)cc1-n1cccn1	i	-10	-5	4	2	-7	14	-14
C[N+]1(CCCOC(=O)C2(c3ccccc3)CCCC2)CCOCC1	i	-8	-11	-3	-2	8	-5	9
O=C(Cn1c(=O)n(CCCC(=O)NC2CCCC2)c(=O)c2ccccc21)NCCC1=CCCCC1	i	-7	/	4	1	-1	5	-5
Cc1ccc(NC(=O)C(C)Sc2nnc(C)n2CC2CCCO2)cc1 (stereo unspecified)	i	-7	9	0	2	4	0	/
Cc1ccc(OCCCCCCN2CCNCC2)c(Br)c1	i	-42	-3	5	3	/	/	42
CCOC(=O)c1c(C)[nH]c(C(=O)COC(=O)COc2ccc(OC)cc2)c1C	i	/	-7	-3	2	-4	8	/
COc1ccc(S(=O)(=O)N2CCC(C(=O)NCCc3ccccc3)CC2)cc1	i	-24	4	1	0	1	6	5
COc1ccc(S(=O)(=O)NC2CCSc3ccccc32)cc1NC(C)=O (stereo unspecified)	i	-4	-2	-2	-1	-11	-4	9
SMILES	Rce1 inh	UUG fidelity	HIV Env fusion	MT1-MMP act inh	MT1-MMP act inh RFP	eIF4H FP inh	PABP FP inh	CSC inhib	others
COc1ccc(CC(=O)NCc2n[nH]c(=S)n2-c2cccc(C)c2)cc1	i	/	5	-1	0	7	-4	-12
Cc1ccc(SCC(=O)NCc2cccnc2)cc1	i	-11	1	7	4	-2	-2	17
COCCSc1ccccc1C(=O)Nc1ccc(Br)cc1	i	/	-14	-1	-2	-2	5	2
COc1ccc(NC(=O)C2CCN(c3ncnc4c3nc3n4CCCCC3)CC2)c(OC)c1	i	-4	-9	3	-9	0	-2	-11
COc1cccc(-n2nnc3c(=O)n(Cc4ccc(Br)cc4)cnc32)c1	i	-21	/	6	-1	-2	-7	-13
CCCSc1nnc(NC(=O)c2nc(SC)ncc2Cl)s1	i	2	-42	18	3	3	1	-6
Cc1ccc(NC2CCCN(C(=O)c3cn4cccc(C)c4n3)C2)cc1C (stereo unspecified)	i	20	-22	1	0	-4	-3	/
O=C(c1ccc2c(c1)OCO2)C1CCCN(C(=O)NCc2ccccc2)C1 (stereo unspecified)	/	/	10	0	2	58*	53*	-6	eIF4H FP inh retest=102*;PABP FP inh retest=68*
COc1ccc(/C=C2\SC(=Nc3ccccc3OC)NC2=O)cc1	i	-15	1	-10	-16	3	0	69
CC(=O)Nc1cccc(-c2csc(Nc3cc(C)ccn3)n2)c1	i	-13	-135	3	-11	1	3	27
Cc1ccc2[nH]c(C(=O)N3CCN(C=O)CC3)cc2c1	i	2	-19	-3	-4	-4	-17	-10
CCO[C@H]1OC(C(=O)N2CCCCCCC2)=C[C@@H](c2ccccc2)[C@@H]1CCCO	i	-5	-6	0	-3	-1	2	6
CC1CCN(S(=O)(=O)c2ccc(C(=O)Nc3ccccn3)cc2)CC1	i	-7	-11	-1	-16	/	/	-2
COc1ccc(CC(=O)N(CCC2=CCCCC2)c2c(N)n(Cc3ccccc3)c(=O)[nH]c2=O)cc1OC	i	0	-114	5	1	/	/	1
S=C(Nc1cccc(Cl)c1)N1CCN(c2ccccn2)CC1	i	10	20	9	4	0	-2	-4
Cc1ccc(-n2nc(C)c3c(C)c(CCC(=O)NCCCOC(C)C)c(C)nc32)cc1	i	1	19	2	-4	3	7	1
CN1/C(=C\C(=O)COC(=O)c2ccc(O)c(O)c2)C(C)(C)c2ccccc21	i	/	27	/	/	18	-6	28
Cc1cccc(OCC(=O)O/N=C(\N)c2ccc(Cl)cc2)c1	i	-7	/	-1	3	1	3	/
COc1ccc(OCC(=O)NC(=S)NNC(=O)COc2ccc(Br)cc2Cl)cc1	/	-28	-12	7	6	13	6	-5
C=CCN(C(=O)CNS(=O)(=O)c1ccccc1)C(C(=O)NCCOC)c1cccnc1 (stereo unspecified)	i	/	4	3	3	4	0	-2
CSc1nnc(C)c(=O)[nH]1	i	-4	-14	-3	-3	6	18	-12
CN(CCCC1CCCC1)C(=O)CCc1nnc(-c2ccccc2)o1	i	-3	-33	0	-1	-3	-4	-6
Cc1n[nH]c(C)c1S(=O)(=O)Nc1ccc2c(c1)OCCO2	i	-44	/	-3	2	0	15	-11
CCC(Oc1ccccc1)C(=O)Nc1ccccc1C(=O)N1CCOCC1 (stereo unspecified)	i	3	7	0	1	8	7	-7
Cc1ccnc(NC(=O)CCCOc2cc(=O)n(C)c3ccccc23)c1	i	-10&-13	i	7&9	3&2	-9	-10	38

The closing five entries of the part above are carried over, then new ones follow:
SMILES	Rce1 inh	UUG fidelity	HIV Env fusion	MT1-MMP act inh	MT1-MMP act inh RFP	eIF4H FP inh	PABP FP inh	CSC inhib	others
CSc1nnc(C)c(=O)[nH]1	i	-4	-14	-3	-3	6	18	-12
CN(CCCC1CCCC1)C(=O)CCc1nnc(-c2ccccc2)o1	i	-3	-33	0	-1	-3	-4	-6
Cc1n[nH]c(C)c1S(=O)(=O)Nc1ccc2c(c1)OCCO2	i	-44	/	-3	2	0	15	-11
CCC(Oc1ccccc1)C(=O)Nc1ccccc1C(=O)N1CCOCC1 (stereo unspecified)	i	3	7	0	1	8	7	-7
Cc1ccnc(NC(=O)CCCOc2cc(=O)n(C)c3ccccc23)c1	i	-10&-13	i	7&9	3&2	-9	-10	38
CCOCCCNC(=O)CC1Oc2ccc(C)cc2NC1=O (stereo unspecified)	i	-1	-48	-1	2	1	-4	/
CC1(C)CC[C@]2(CO)CC[C@]3(C)C(=CCC4[C@@]5(C)CC[C@H](O)[C@@](C)(CO)C5CC[C@]43C)[C@@H]2C1 (stereo partly specified)	/	-27	-31	4	-4	/	/	?
CCc1ccc(-c2cc(C)no2)cc1S(=O)(=O)N1CCN(c2cccc(C)c2C)CC1	i	11	41	-4	-12	-3	2	30
COCCn1c(SCc2cnc(-c3ccccc3)s2)nnc1-c1ccncc1	i	-7	/	-2	-9	0	10	-1
COC(=O)c1ccccc1NC(=O)CN1CCCCC1	i	/	-2	1	-2	-1	1	-7
Cc1nn(Cc2c(F)c(F)c(F)c(F)c2F)c(C)c1NC(=O)c1ccc(COc2ccccc2Cl)o1	i	/	66*	-10	-18	3	9	11
C/C(=N\NS(=O)(=O)c1ccc(C)cc1)c1ccc(C)o1	i	-12	-11	-5	-5	2	1	-6
CN1CCN(C2CN(Cc3ccc(F)cc3)S(=O)(=O)C2)CC1 (stereo unspecified)	/	-23	-79	4	4	/	/	/
CCn1nc(C)cc1C(=O)N1CCCC(C(=O)c2ccc(Oc3ccccc3)cc2)C1 (stereo unspecified)	i	3	8	-1	-2	5	-4	42
COc1ccc(-c2ccc(SCC(=O)Nc3cccc(C(C)=O)c3)nn2)cc1OC	i	-34	-31	3	-2	2	-7	-2
NS(=O)(=O)c1ccc(CCNCC(=O)N2CCC(Cc3ccccc3)CC2)cc1	i	-1	21	2	-1	-4	7	37
COc1ccc(-c2cn(Cc3ccc(C(N)=O)cc3)c(-c3ccncc3)n2)cc1	/	-12	-82	-1	4	/	/	7
COc1ccc(-c2cc(=O)oc3cc(OC(C)C(=O)NCC4CCC(C(=O)O)CC4)ccc23)cc1 (stereo unspecified)	i	-8	/	0	2	-7	15	-15
CCCCNC(=S)NNC(=O)CCn1cc(C)cn1	+	/	5	-5	3	5	-4	/
Cc1ccc([N+](=O)[O-])cc1NC(=O)Cc1ccc(F)cc1	i	/	9	4	3	2	2	-4
COc1cccc(NC(=O)CN(c2cccc(F)c2)S(C)(=O)=O)c1	i	-15	/	-2	0	7	-4	-10
CC(=O)Nc1ccc(NC(=O)CSc2nnc(N)n2-c2ccccc2)cc1	/	-11	7	-1	4	/	/	/
COC(=O)c1nc2n(n1)C(c1ccc(OC)c(OC)c1)C(C(=O)OC1CCCCC1)=C(C)N2 (stereo unspecified)	i	-16	-114	0	0	-9	6	-26
O=C(CCN1C(=O)c2ccccc2C1=O)NC(=S)Nc1cccc(Cl)c1	i	-12	/	0	-8	2	-9	/
O=C(NNC(=O)c1ccco1)c1ccccc1	i	-2	-27	2	7	1	7	-6
CCOC(=O)c1nnsc1N	i	-8	22	0	3	0	-6	6
CCCC1Cc2nc(Cl)c(C#N)cc2CO1 (stereo unspecified)	i	-5	-3	0	5	-1	0	-4
CN1CCN(C2=C(Cl)C(=O)N(CCc3ccccc3)C2=O)CC1	i	-20	-14	-16	-13	?	-10	-1
O=c1cc(CSc2ccccc2)[nH]c(=S)[nH]1	i	-23	11	4	5	-3	4	-13
COc1ccc(C2CC(c3ccccc3)Nc3nc(NC(=O)c4ccco4)nn32)cc1 (stereo unspecified)	i	-29	/	-6	-4	7	11	-18
CC1CCCC(C)N1C(=O)CSc1nc2c(c(=O)n(C)c(=O)n2C)n1C (stereo unspecified)	/	-4	-63	-5	-4	-22	6	4
COc1cccc2c1OC1(C)CC2N(C(=O)c2ccco2)C(=S)N1c1ccc(F)cc1 (stereo unspecified)	i	-11	-184	4	-3	-2	4	18
O=C(Cn1c(CO)nc2ccccc21)NCc1ccc2c(c1)OCO2	/	/	-10	-2	-1	-7	3	0

Assay outcomes deposited in PubChem BioAssay by several laboratories.
